Screens from PubChem BioAssay.
HIV TAR-Tat: HIV-1 TAR-Tat binding disruption. actives 0.6% (n = 100,000). HIV-1 TAR RNA, Tat peptide displacement FRET; hits give high values. z-score (test concentration not listed);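 note: score is relative to mean and SD of negative controls; some compounds called inactive have numbers as strong as hits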
CDC25B CDK2 inh: human CDC25B-CDK2/CyclinA binding inhibition; P30305+P24941; HTRF CDC25B-CDK2/CyclinA binding, anti-His/anti-Flag; hits give high values; z-score (test concentration not listed); actives 0.72% (n = 94,000); AID 1259370;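 note: score is relative to mean and SD of negative controls; strong numbers were not always called active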
Starred values were filed as active, the others as inactive; / = not tested or not shown; & = joins results of further samples.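 Rule for the calls: active = z-score from 3 up in half or more of its runs; inactive = the rest.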

SMILES	HIV TAR-Tat	CDC25B CDK2 inh
Cc1cc(NC(=O)c2nc3ncccn3n2)no1	-0.26	-0.32
Cc1nn(C)c(C)c1CNC(=O)Nc1ccc(Br)cc1	1.2	/
Cc1ccc(-n2cnc3c(sc4nc(N5CCOCC5)c5c(c43)CC(C)(C)OC5)c2=O)cc1	1.4	-0.19
Cn1c(=O)c(=O)n(C)c2cc(N3CCCC3)c(NS(=O)(=O)c3ccc(N4CCCC4=O)cc3)cc21	-0.58	/
Cc1cc2nc(CSc3n[nH]c(CC(C)C)n3)cc(=O)n2o1	-0.51	/
CCCn1cc(S(=O)(=O)c2ccccc2)c(=O)c2cc(F)c(N3CCCCC3)cc21	0	/
Cc1ccc(C)n1-c1ccc(Cl)cc1	-1.2	0.89
CCC(C)NC(=O)c1cc2sc(Cl)cc2n1C (stereo not drawn)	/	0.39
COc1ccc(OC)c(C(=O)c2ccc(Cl)cc2)c1	/	-1.2
COc1ccc(/C=C/c2nc(C#N)c(N3CCC(C)CC3)o2)cc1OC	1.9	-2.3
COC(=O)c1ccc(/C=C/c2cccc(Cl)c2)s1	/	-1.1
Cc1nc(Nc2ncc3c(n2)CC(c2ccccc2)CC3=O)nc2ccccc12 (stereo not drawn)	-2.1	0.47
CCc1nnc2c(Nc3ccc(F)cc3)nc3ccccc3n12	-1.3	-1.4
CCOC(=O)c1c(NC(=O)c2nc(S(=O)(=O)CC)ncc2Cl)sc(C)c1C	1.7	-1.9
COc1cccc(CNCCCSc2nnnn2C)c1	-0.16	-0.11
CCOC(=O)c1nc(-c2nn(-c3ccccc3)c(=O)n(CC)c2=O)no1	0.67	-2.7
COc1ccc(-c2noc(CSc3nnc(-c4ccncc4)n3C)n2)c(OC)c1	0.61	-0.46
CCN1CCN(C(=O)c2cc(S(=O)(=O)N3CCc4ccccc43)cn2C)CC1	1.8	-1.1
CCOC(=O)c1[nH]c(C)c(C(=O)NCCC(C)C)c1C	/	-1.6
CC(CN1c2ccccc2Sc2ccccc21)N(C)C (stereo not drawn)	1.1&0.7	-2.5&-2.8
CC1=C(C(=O)NCc2cccs2)C2(CCN(S(=O)(=O)c3cccs3)CC2)OC1=O	-0.76	/
Cc1cc(Sc2ccc(N)cc2)c2ccccc2n1	0.47	/
COc1cc2c(cc1NS(=O)(=O)c1ccc(Cl)cc1)n(C)c(=O)n2C	-0.25	-4.5
COc1ccc(OC)c(S(=O)(=O)NCCc2ccccn2)c1	/	-0.84
CC12c3ccccc3C(C)(c3ccccc31)C1C(=O)N(c3cccc(C(=O)O)c3)C(=O)C12 (stereo not drawn)	/	1.9
CC(c1nnc(SCC(=O)Nc2nc3ccccc3s2)n1C)N1C(=O)COc2ccccc21 (stereo not drawn)	-0.41	/
COc1ccccc1N1C(=O)N(CC(=O)C(C)(C)C)c2ccccc2S1(=O)=O	2.8	/
Cn1ncc2c(-n3ncc(C#N)c3N)ncnc21	/	-1.8
COc1cc(NC(=O)Cn2ccn(-c3ccc(Br)cc3)c2=O)cc(OC)c1	-0.25	/
C/C(=N\O)c1cc2cc([N+](=O)[O-])ccc2o1	/	0.14
CC(=O)NC(c1ccc(N(C)C)cc1)c1ccc2cccnc2c1O (stereo not drawn)	/	-3.8
CCOc1ccc(-c2nc(-c3ccc(C)nc3OCC)no2)cc1	-0.23	-0.63
Cc1nnc(SCC(=O)O)c2nn(-c3ccccc3)c(C)c12	0	-0.84
CCOC(=O)c1noc2nc(C)nc(NCCN3CCOCC3)c12	0.22	/
Cc1occc1-c1nnc(SCC(=O)O)o1	14	-0.2
CCOC(=O)c1noc2ncnc(N3CCc4ccccc43)c12	0.38	/
COc1cccc(CN(C)C)c1O	0.61	-1.8
Cc1occc1C(=O)Nc1ccc(N(C)C)cc1	2.1	-3
Cn1ncc2c(N3CCN(C(c4ccccc4)c4ccccc4)CC3)ncnc21	3.1	/
CC(C)Cc1nnc(NC(=O)c2nn(-c3cccc(Cl)c3)ccc2=O)s1	0.17	-0.9
Cc1cccc(-c2noc(-c3cccnc3NCc3ccccc3Cl)n2)c1	0.68	-1.3
Cc1cc(C)c2c(n1)nn1c(C)c(CCC(=O)Nc3ccc4c(c3)OCCO4)c(C)nc21	1.6	-0.78
CCC(C)Nc1cc(C)nc2c(-c3ccc(F)cc3)c(C)nn12 (stereo not drawn)	-0.35	-0.9
CC1(C(=O)NC2CCCC2)CCC(=O)N1c1ccc(F)cc1F (stereo not drawn)	-0.97	-2.6
Cc1cc(NC(=O)CC(=O)Nc2ccc3nc4n(c(=O)c3c2)CCCCC4)no1	-0.76	-0.36
CCN1CCN(c2nc3c(S(=O)(=O)c4ccc(C)c(C)c4)nnn3c3ccccc23)CC1	1.2	/
O=S(=O)(Nc1ccccn1)c1ccc(F)cc1	/	-1.5
CCOC(=O)C1CCN(S(=O)(=O)c2ccc3c(c2)S(=O)(=O)N=CN3)CC1	-0.47	/
CC(=O)Oc1ccc(/C=C2\C=C(c3ccc(Br)cc3)OC2=O)c(OC(C)=O)c1	/	-5.4
O=C(Nc1ccc(F)cc1)Nc1nc2ccccc2s1	0.79	1.5
COc1ccc(Cl)cc1NC(=O)COc1cc(CSc2ncccn2)ncc1OC	1.1	/
O=C1CC(c2ccc(Cl)cc2)CC2=C1C(c1cccs1)Nc1ccccc1N2 (stereo not drawn)	1.4	2.7
CN(CCCNS(=O)(=O)c1ccc2c(c1)CCCC(=O)N2)C1CCCCC1	-0.14	/
CC(C)CCn1c(=O)c2sccc2n2c(CCCC(=O)NC(C)C)nnc12	-0.85	/
CCOc1ccccc1-c1noc(CSc2nnc(-c3ccccc3)n2CC)n1	1	-0.91
C=CCNC(=O)Cn1cc(OC)c(=O)cc1CSc1ncccn1	0.34	/
COc1ccc2nc3sc(C(=O)NCC4CCCO4)cc3cc2c1 (stereo not drawn)	/	-3.3
O=C(CSc1nccn2nc(-c3ccccc3)cc12)Nc1nccs1	1	/
O=C1COc2cc(S(=O)(=O)CCC(=O)Nc3cccc4c3CCCC4)c(Cl)cc2N1	-0.08	/
COC(=O)c1cc(S(=O)(=O)N2CCC(c3cc(OC)ccc3OC)C2)c[nH]1 (stereo not drawn)	-0.61	/

Some of the entries so far, comma-delimited.
mol,HIV TAR-Tat,CDC25B CDK2 inh
CCOc1ccccc1-c1noc(CSc2nnc(-c3ccccc3)n2CC)n1,1,-0.91
O=C(Nc1ccc(F)cc1)Nc1nc2ccccc2s1,0.79,1.5

More results follow.
SMILES	HIV TAR-Tat	CDC25B CDK2 inh
O=C(Cc1coc2ccc3ccccc3c12)Nc1ccc(Cl)cn1	-2.7	-0.47
Cn1c(O)c(C2=Nc3ccccc3SC(c3cccnc3)C2)c(=O)[nH]c1=O (stereo not drawn)	2.1	0.68
COc1cc(/C=C/C(=O)O)ccc1O	1.5	/
Cc1nnc(SCC(=O)Nc2ccc(N(C)C)cc2)[nH]c1=O	2.2	-6.5
CCCN(CCC)S(=O)(=O)c1csc(C(N)=O)c1	2.4	/
Cc1cc(NS(=O)(=O)c2ccc(NC(=O)C3COc4ccccc4O3)cc2)nc(C)n1 (stereo not drawn)	/	-0.45
CC1CC(C)CN(C(=O)CCc2nnc3ccc(N4CCCC4)nn23)C1 (stereo not drawn)	-0.46	/
Cc1cccc(N(C)S(=O)(=O)c2cc(-c3noc(C)n3)cs2)c1	2.2	/
CC1CN(c2ccc(NC(=S)NCc3ccco3)cc2)CC(C)O1 (stereo not drawn)	/	-1.6
Cc1ccc(-c2nc3nc[nH]n3c2Nc2ccccc2)cc1	0.61	-2.1
Cn1cc(S(=O)(=O)Nc2ccc(Oc3c(Cl)cccc3Cl)nc2)cn1	/	-0.78
COc1cc(OC)c(NC(=O)CSc2nnc(C)n3c2cc2occc23)cc1Cl	-0.56	/
COc1ccc2cc3c(nc2c1)N(S(=O)(=O)c1cc(C)ccc1C)CC3	-0.89	2.8
Cc1ccc(C)c(S(=O)(=O)N(CCc2ccccc2)CCS(=O)(=O)N2CCNCC2)c1	1.6	/
COC(=O)c1c(C)[nH]c(C(=O)CSc2nc(C)nc3sc4c(c23)CCC4)c1C	0.36	-3.2
CS(=O)(=O)n1nc(-c2ccco2)nc1SCc1ccccc1	-2.4	-0.62
CC(C)NC(=O)C1=CC(c2ccc3c(c2)OCO3)=NS(=O)(=O)N1C	0.38	-3.8
CC(=O)c1cccc(N2COc3ccc4cc(Br)ccc4c3C2)c1	/	-0.92
Cn1nnc(NCc2ccc3c(c2)n(C)c(=O)n3C)n1	0.66	/
COc1ccc(OC)c(C2=NS(=O)(=O)N(C)C(C(=O)NCC3CCCO3)=C2)c1 (stereo not drawn)	1.4	-2.2
COc1ccc(S(=O)(=O)NCc2csc(C)n2)cc1C	-0.29	-1.1
Cc1noc2c1-c1c(c(C(=O)O)nn1C)CC2	3	-0.53
O=S(=O)(NC1CCCCC1)c1ccc(S(=O)(=O)N(Cc2ccccc2)Cc2ccco2)cc1	0.49	0.92
CCCCn1cnc2c(oc3nc4c(cc32)CCCC4)c1=O	0.32	/
Cc1cccc(-n2ncc3c(Nc4c(C)n(C)n(-c5ccccc5)c4=O)ncnc32)c1	/	-2.5
COc1ccccc1NC(=O)NC1=C(C#N)C(C)(C)Cc2ccccc21	2.8	-0.87
O=S(=O)(c1ccccc1)c1nc(NCc2ccccc2)sc1Cl	-0.08	-0.7
O=C(Cn1ncc2ccc(Cl)cc21)NCc1ccccn1	1.3	-2
O=C1CC(Nc2ccc(N3CCOCC3)cc2)C(=O)N1c1cccc(Cl)c1 (stereo not drawn)	-1.1	-1.9
CN(C(=O)C1CCN(c2ccc(-c3cccs3)nn2)CC1)C1CCCCC1	0.72	/
Cc1noc(/C=C/N(C)C)c1S(=O)(=O)N1CCCC(C(=O)Nc2ccc(Cl)cc2F)C1 (stereo not drawn)	/	-0.14
O=C1c2ccccc2C(=O)N1Cc1nc2ccccc2c(=O)n1Cc1ccco1	/	0.31
c1ccc(-c2nc3ccccc3nc2-c2ccccn2)nc1	/	-2.4
COC(=O)C1C2C=CC3(CN(Cc4ccc(C)cc4)C(=O)C13)O2 (stereo not drawn)	0.48	-0.65
Cc1cc(NCc2cccs2)n2nc(Cc3cccc(F)c3)nc2n1	1.3	/
CC1=C(c2ccc(Cl)cc2)S(=O)(=O)N=C1Nc1ccccc1C	1.4	-1.2
Cc1nnc2c(Nc3ccc(F)cc3F)nc3ccccc3n12	1	-0.66
CCOC(=O)c1nnn(-c2nonc2N)c1-c1ccccc1Cl	0.85	-0.26
Cc1c2cnc3nn(-c4ccccc4)c(=O)c-3cc2c(C)n1C	0.81	0.14
Cc1ccc2c(c1)C(O)(CC(=O)c1ccc(N(C)C)cc1)C(=O)N2 (stereo not drawn)	/	-2

Another view of 3 compounds above:
Values in the order – HIV TAR-Tat	CDC25B CDK2 inh
Cc1c2cnc3nn(-c4ccccc4)c(=O)c-3cc2c(C)n1C
 : 0.81	0.14
Cc1ccc2c(c1)C(O)(CC(=O)c1ccc(N(C)C)cc1)C(=O)N2 (stereo not drawn)
 : /	-2
c1ccc(-c2nc3ccccc3nc2-c2ccccn2)nc1
 : /	-2.4

(list continues)
SMILES	HIV TAR-Tat	CDC25B CDK2 inh
O=C(CSc1ncc(S(=O)(=O)c2ccc(Br)cc2)c(=O)[nH]1)Nc1ccccc1	1.9	-1.3
O=C(Nc1ccc(Cl)cn1)C1CC1	/	0.08
Nc1nnc(Sc2c(-c3ccccc3)c3ccc(Cl)cc3[nH]c2=O)s1	1.3	-1.6
CCN1C(=O)CCc2cc(NS(=O)(=O)c3ccc(Br)cc3)ccc21	1	/
COc1ccc(-c2noc(-c3ccc(C)c(C)c3)n2)cc1	/	6
Cc1ccnc2nc(NC(=O)c3ccco3)nn12	0.64	-2.1
Cc1c(C(=O)CSc2ccc(Cl)cc2)sc2ccc(Cl)cc12	/	-0.92
Cc1nc2ccccc2n1-c1ccccc1	1.1	-1.5
CCn1cc(CN(C)C(=O)c2cc3n(n2)C(C(F)(F)F)CC(c2ccco2)N3)c(C)n1 (stereo not drawn)	0.13	1
COc1cc(NC(=O)C2CC(=O)NC3=C2C(=O)CC(C)(C)C3)c(OC)cc1Cl (stereo not drawn)	2.6	-1.6
Cc1nnc(SCC(=O)c2c[nH]c3ccccc23)n1C1CCCCC1	-1.6	-2
CCCN(CCC)C(=O)c1oc2ccccc2c1NC(=O)c1cc(-c2cccs2)on1	0.58	-1.2
Cc1oc2ncnc(NC3CCCC3)c2c1C(=O)O	1.3	-0.99
OC(Cn1cncn1)c1ccc(Cl)cc1Cl (stereo not drawn)	/	-0.39
CC(C(=O)O)N1C(=O)CSc2ncccc21 (stereo not drawn)	0.38	0.07
Cc1c(OCC(=O)c2ccc3ccccc3c2)ccc2c1oc(=O)c1ccccc12	/	-3.4
CCOC(=O)N1CCN(C(=O)c2cc(-c3ccco3)[nH]n2)CC1	-4.7	/
C/C(=N\NC(=O)N/N=C(\C)c1ccc([N+](=O)[O-])cc1)c1ccc([N+](=O)[O-])cc1	/	-1.5
O=c1ccc(-c2ccccc2)n[nH]1	/	-0.62
CCN(Cc1nc(-c2ccc(OC)c(OC)c2)no1)S(=O)(=O)c1c(C)cc(C)cc1C	2.3	-2.4

Sorted by heavy-atom count (descending): seven of the compounds above
SMILES	HIV TAR-Tat	CDC25B CDK2 inh
CCn1cc(CN(C)C(=O)c2cc3n(n2)C(C(F)(F)F)CC(c2ccco2)N3)c(C)n1 (stereo not drawn)	0.13	1
Cc1c(OCC(=O)c2ccc3ccccc3c2)ccc2c1oc(=O)c1ccccc12	/	-3.4
CCOC(=O)N1CCN(C(=O)c2cc(-c3ccco3)[nH]n2)CC1	-4.7	/
COc1ccc(-c2noc(-c3ccc(C)c(C)c3)n2)cc1	/	6
Cc1oc2ncnc(NC3CCCC3)c2c1C(=O)O	1.3	-0.99
Cc1ccnc2nc(NC(=O)c3ccco3)nn12	0.64	-2.1
CC(C(=O)O)N1C(=O)CSc2ncccc21 (stereo not drawn)	0.38	0.07
